HPGD block: HPGD (human) dehydrogenase inhibition; 150,000 compounds, 4.3% hits; purified HPGD, NADH fluorescence kinetic, PGE2 substrate; Potency, µM, inactives show top-dose activity change, negative = inhibition, hits mostly inhibitors; active = well fitted inhibition curve with a large enough effect (not every such curve was filed as active); inconclusive = small, poorly fitted or top-dose-only effect, or another doubt; inactive = no such curve, though single readings can be large or run the other way;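 also: top concentration of the series not given in the record; plate controls included wells without enzyme; inactives centre near -10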
Target sequence (P15428 whole entry, looked up): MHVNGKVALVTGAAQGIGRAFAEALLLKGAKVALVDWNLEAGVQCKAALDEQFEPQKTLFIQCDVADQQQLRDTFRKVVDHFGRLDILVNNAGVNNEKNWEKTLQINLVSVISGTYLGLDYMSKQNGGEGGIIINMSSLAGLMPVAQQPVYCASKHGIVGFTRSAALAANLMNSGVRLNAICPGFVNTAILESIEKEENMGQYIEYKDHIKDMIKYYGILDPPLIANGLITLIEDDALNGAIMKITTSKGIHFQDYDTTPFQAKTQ
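NADH formation kinetics: reaction with 30 uM PGE2 and 1 mM NAD+ (final), 20 nM enzyme, Tris-HCl pH 8 with Tween 20, after 15 min compound preincubation at room temperature. Fluorescence change, last versus first of five reads.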
Numbers without * were called inactive; & = joins results of further samples. % is scaled to controls: 0 for no effect and ±100 for the full control effect; potency is read from the fitted curve at half-maximal effect. This is a subset, so the mix of outcomes need not match the whole.

For O=C(O)C1CCN(C(=O)c2ccccc2C(=O)N2CCC(C(=O)O)CC2)CC1 the results were HPGD block -11%.
Screening Cc1ccsc1C1NC(=O)c2ccccc2N1 (stereo not given) returned HPGD block inconclusive.
Screening Cc1ccc(-c2noc(CN3CCC(C(N)=O)CC3)n2)cc1 returned HPGD block -8%.
`C=CCn1c(SCc2c(C)noc2C)nc2sc3c(c2c1=O)CCC(C)C3` (stereo not given) gave HPGD block -18%.
Screening CNC(=S)N1CCc2ccccc2C1 returned HPGD block -14%.
For O=C(c1ccc2nc(N3CCOCC3)sc2c1)N1CCCC1 the results were HPGD block 14µM*.
`COc1ccc(/C=N/n2c(SC)nnc2-c2ccccc2)cc1C` gave HPGD block -13%.
For Cc1ccc(C(=O)CSc2n[nH]c(-c3ccco3)n2)cc1C the results were HPGD block 5µM*.
COCc1[nH]nc2c1C1(C(=O)N(C)c3ccccc31)C(C#N)=C(N)O2 (stereo not given) was read as HPGD block -6%.
`Cn1nnnc1SCc1nnc(-c2ccccc2Br)o1` gave HPGD block -14%.
`CC(=O)CSc1nnc(Cc2ccc([N+](=O)[O-])cc2)o1` gave HPGD block -1%.
Screening N[C@@H](CC1=CS(=O)(=O)c2ccc(Cl)cc21)C(=O)O returned HPGD block -9%.
Screening CC1CCN(CCc2nc3cc(NS(=O)(=O)c4ccccc4)ccc3n2C)CC1 returned HPGD block -3%.
Screening Cc1[nH]c2ccccc2c1C1(O)C(=O)N(Cc2ccc3c(c2)OCO3)c2ccccc21 (stereo not given) returned HPGD block -19%.
For C=CCNc1cnn(CC(C)=O)c(=O)c1Br the results were HPGD block -8%.
Screening Oc1cc(-c2ccccc2)c2ccccc2c1 returned HPGD block inconclusive.
Cc1sc2nc(C3CC3)nc(NCCNS(=O)(=O)c3ccccc3)c2c1C was read as HPGD block -3%.
For CCCCC1=CC2=CC(=O)C(C)(OC(=O)CC)C(=O)C2=CN1CC(C)C (stereo not given) the results were HPGD block -4%.
O=C(NCC(=O)N(CC1CCCO1)C(C(=O)NC1CCCC1)c1cccnc1)c1ccco1 (stereo not given) was read as HPGD block -6%.
`NS(=O)(=O)c1ccc(NC2(C(=O)O)CCCC2)cc1` gave HPGD block -6%.
CCC(=O)NC(=S)Nc1cccc(Cl)c1N1CCCCC1 was read as HPGD block -9%.
For COc1ccc2oc(=O)c(C(=O)N3CCN(c4ccccc4C)CC3)cc2c1 the results were HPGD block -15%.
CCc1ccc(NC(=O)c2cc(-c3ccco3)on2)cc1 was read as HPGD block -17%.
C=CCn1c(SCC(=O)/C(C#N)=C(\C)N)nnc1C1CCCCC1 was read as HPGD block -6%.
C=CCn1c(SCCOC)nc2c1c(=O)[nH]c(=O)n2C was read as HPGD block -23%.
Brc1ccc(CN2CCSCC2)cc1 was read as HPGD block -9%.
Screening COc1ccc(CCNc2oc(COc3ccccc3Cl)nc2C#N)cc1OC returned HPGD block -17%.
Cc1nn(Cc2ccccc2Cl)c2sc(C(=O)Nc3nccs3)cc12 was read as HPGD block inconclusive.
For COC(=O)CSc1nnc(CNC(=O)c2ccc(OC)cc2OC)n1C the results were HPGD block 0%.
For CCC1=[N+](CC(=O)c2ccc(C)cc2)CCn2c(C)ccc21 the results were HPGD block -11%.
`Cc1ccc(CNc2ncnc3c2cnn3-c2ccccc2)cc1` gave HPGD block -18%.
C=CC(=O)c1ccc2ccccc2c1 was read as HPGD block inconclusive.
Screening OCC(CO)(CBr)CBr returned HPGD block -9%.
Screening CC(C)c1ccc(-c2nn[nH]n2)cc1 returned HPGD block -17%.
Screening O=C(NCc1ccc2c(c1)OCO2)c1cc(S(=O)(=O)N2CCCCC2)ccc1F returned HPGD block -8%.
Brc1ccc(-c2nnc(-c3cccc(Br)c3)o2)cc1 was read as HPGD block -15%.
Cn1c(=O)oc2cc(S(=O)(=O)N3CCC(C(=O)N4CC=C(c5ccccc5)CC4)CC3)ccc21 was read as HPGD block -22%.
`CN1C2C=C3C(C#N)=C(N)C(C#N)(C#N)[C@@H](c4ccc(Cl)cc4)[C@@H]3C1CC2` (stereo not given in full) gave HPGD block -14%.
Screening Cc1ccc2c(n1)CC(C)(C)C/C2=N\O returned HPGD block -7%.
`O=C(Nc1cccc(Cl)c1)c1ccc(F)c(S(=O)(=O)NCc2cccs2)c1` gave HPGD block -3%.
`Cc1cc(=O)oc2cc(OCc3ccc(S(=O)(=O)N4CCOCC4)cc3)ccc12` gave HPGD block inconclusive.
For COc1cccc(C2=NOC(C(=O)NCCCn3ccnc3)C2)c1 (stereo not given) the results were HPGD block -7%.
`CC(C)(C)c1cc(NC(=O)CSc2nnc(NCc3ccccc3)s2)n(-c2ccccc2)n1` gave HPGD block -21%.
For O=C(NC1CCCCC1)C(c1ccc(F)cc1)N(C(=O)c1cccs1)c1ccc2c(c1)OCO2 (stereo not given) the results were HPGD block -15%.
`Oc1c(CN2CCN(c3ccccn3)CC2)cc(Cl)c2cccnc12` gave HPGD block -12%.
For COc1ccc(-n2c(=S)[nH]c3cc(C(=O)NCc4ccco4)ccc3c2=O)c(OC)c1 the results were HPGD block -30%.
`CN(c1nc(-c2ccccc2)cs1)C1CCS(=O)(=O)C1` (stereo not given) gave HPGD block -6%.
`FC(F)(F)c1nc2ccccc2n2c(-c3c(Cl)cccc3Cl)nnc12` gave HPGD block -14%.
For O=C(O)CCCCCNC(=O)Nc1ccc2c(c1)OCCO2 the results were HPGD block 0%.
For N#CCCCSC1=C(C#N)C(c2ccccc2Cl)CC(=O)N1 (stereo not given) the results were HPGD block -13%.
Screening Cc1onc(-c2ccccc2Cl)c1C(=O)Nc1nnc(-c2ccc(F)cc2)s1 returned HPGD block -11%.
`Cc1cc(Nc2cccc([N+](=O)[O-])c2)n2c(nc3ccccc32)c1C#N` gave HPGD block -7%.
CC(=O)N1CCN(S(=O)(=O)c2cccc(C(=O)Nc3nc4c(s3)CCCC4)c2)CC1 was read as HPGD block -18%.
For CCOc1ccc(NC(=O)c2cccc(-n3cnnn3)c2)cc1 the results were HPGD block -14%.
CCCCC(=O)Nc1cccc(NC(=S)NC(=O)Cc2ccccc2)c1 was read as HPGD block -7%.
Screening Cc1ccc(C)c(N2CCN(C(=O)Cc3ccc(-n4c(=O)[nH]c5ccsc5c4=O)cc3)CC2)c1 returned HPGD block -19%.
`COc1cc(NC(=O)c2cccc(Cl)c2)c(OC)cc1NC(=O)CN1CCOCC1` gave HPGD block -5%.
For CCN(CC)S(=O)(=O)c1cccc(-c2nnc(SCC(=O)NC3CCCC3)n2N)c1 the results were HPGD block 1%.
Cn1cccc1/C=N/NC(=O)c1cc(-c2cccs2)nc2ccccc12 was read as HPGD block inconclusive.
COc1ccc(C(C[N+](=O)[O-])n2nc(C)cc2C)cc1 (stereo not given) was read as HPGD block 32µM*.
`COc1ccc(N2CCN(Cc3cc(OC)c(O)c([N+](=O)[O-])c3)CC2)cc1` gave HPGD block 2%.
`O=[N+]([O-])c1cccnc1N1CCCCC1` gave HPGD block -9%.
Cc1ccc(S(=O)(=O)c2c(COC(=O)c3cccc(Cl)c3)c(-c3ccccc3)nn2C)cc1 was read as HPGD block -7%.
Screening O=C(c1cc2c(s1)CCCCC2)N1CCN(c2ncccn2)CC1 returned HPGD block -12%.
Screening CCOC(=O)C(C(=O)OCC)=C1OC(=O)c2ccccc21 returned HPGD block -15%.
Screening N#Cc1c(N)nc(SCC(=O)OCc2ccccc2)c(C#N)c1-c1ccco1 returned HPGD block -18%.
CCOC(=O)CC1=NS(=O)(=O)c2ccccc2N1 was read as HPGD block -4%.
`C/C(=C1\SC(N2CCOCC2)=NC1=O)c1ccccc1` gave HPGD block -5%.
O=C(CSc1nnc(-c2ccncc2)n1Cc1ccccc1)Nc1nccs1 was read as HPGD block -14%.
COc1ccc(C(=O)COC(=O)CCn2nnc(-c3cccs3)n2)cc1 was read as HPGD block -3%.
For Cc1cc(C(=O)Nc2ccccn2)no1 the results were HPGD block -2%.
COc1cc(/C=C2\SC(N3CCc4ccccc4C3)=NC2=O)cc(OC)c1OC was read as HPGD block -18%.
Screening CCn1ncc(C2=NOC(C(=O)N3CCN(c4ccccc4)CC3)C2)c1C (stereo not given) returned HPGD block -10%.
`COc1ccccc1C1/C(=C(/O)c2ccc(Cl)cc2)C(=O)C(=O)N1CCN1CCOCC1` (stereo not given) gave HPGD block -4%.
CCOc1cc(C2NN=C(c3ccccc3)S2)ccc1OCc1ccc(F)cc1 (stereo not given) was read as HPGD block inconclusive.
`CCn1c2ccccc2c2cc(/C=N/NC(=O)c3ccccc3C)ccc21` gave HPGD block inconclusive.
For Cc1c(Nc2ncnc3nc[nH]c23)c(=O)n(-c2ccccc2)n1C the results were HPGD block 0%.
Screening COc1cc(C(C)=O)ccc1OCC(O)CN1CCN(S(=O)(=O)c2ccccc2)CC1 (stereo not given) returned HPGD block -9%.
For CCOC(=O)C1=C(C)NC(SCC(=O)O)=NC1c1ccccc1 (stereo not given) the results were HPGD block -13%.
O=C1Nc2ccccc2/C1=N/c1sc2c(c1C(=O)NCCc1ccccc1)CCCC2 was read as HPGD block -17%.
CCOc1ccc(Nc2nc(Cc3nnc(SCC(N)=O)o3)cs2)cc1 was read as HPGD block 1%.
`CN(C(=O)COC(=O)c1ccc2c(c1)NC(=O)CS2)C1CCS(=O)(=O)C1` (stereo not given) gave HPGD block -8%.
For CN(C)CCCCNC(=O)c1ccc(Cc2nc3ccccc3[nH]2)cc1 the results were HPGD block -6%.
C=CCOC(=O)/C(=C/c1ccco1)NC(=O)/C=C/c1ccccc1 was read as HPGD block -29%.
For O=C(O)c1cccnc1SC1CC(=O)N(CCc2ccccc2)C1=O (stereo not given) the results were HPGD block -17%.
Cc1ccc2nc(/C(C#N)=C\c3ccc([N+](=O)[O-])o3)[nH]c2c1 was read as HPGD block -21%.
Screening O=C(CCCc1nc2ccccc2s1)NC(c1ccccc1)c1ccccc1 returned HPGD block -4%.
Screening O=c1[nH]c(/C(Cl)=C/c2c(F)cccc2Cl)nc2cc(Cl)ccc12 returned HPGD block inconclusive.
`COc1ccccc1/C=C/C(=O)NC(=S)N(C)C1CCCCC1` gave HPGD block inconclusive.
`O=C(CCn1cnc2ccccc21)N/N=C/c1ccc(O)cc1` gave HPGD block inconclusive.
Screening CCOC(=O)c1ccc2nc(Nc3nc4ccc(F)cc4s3)sc2c1 returned HPGD block inconclusive.
For CCCn1nnc(NC(=O)c2ccccc2Br)n1 the results were HPGD block -9%.
Screening CN(C(=O)c1cccc(C#N)c1)c1nnc(C2CCOC2)s1 (stereo not given) returned HPGD block -4%.
`CC(=O)c1ccc(NC(=O)C(Cc2ccccc2)NC(=O)c2ccco2)cc1` (stereo not given) gave HPGD block -6%.
CC(C)(C)C(=O)Nc1ccc2oc(-c3cc(F)c(F)cc3Cl)nc2c1 was read as HPGD block -2%.
For O=C(O)c1ccccc1NS(=O)(=O)c1ccccc1C(F)(F)F the results were HPGD block -13%&-4%.
`Clc1ccc(Oc2cccc(/C=N/n3cnnc3)c2)cc1` gave HPGD block inconclusive.
`CCCc1cc(=O)[nH]c(SCC(=O)c2cc(C)n(C3CC3)c2C)n1` gave HPGD block -20%.
`CCN(CC)CC(C)CNC(=O)CC(C(=O)N1CCc2ccccc21)n1ccnc1` (stereo not given) gave HPGD block -3%.
`CCc1ccccc1NC(=O)/C(=C/c1ccccc1)c1ccccc1` gave HPGD block 0%.
`O=C(OCCN1CCN(c2ncc(C(F)(F)F)cc2Cl)CC1)c1ccc(Cl)cc1` gave HPGD block -15%.
CN1C[C@@H]2C(c3ccc(Cl)nc3)C3(c4ccc(C#N)cc4)CC2(C3)[C@H]1c1ccccc1 (stereo not given in full) was read as HPGD block -6%.
Screening CCOC(=O)c1nonc1NC(C)=O returned HPGD block -5%.
Screening CCOc1ccccc1-c1nn2c(Cc3ccccc3)nnc2s1 returned HPGD block inconclusive.
`COc1cc2c(cc1OC)C(C(=O)Nc1ccccn1)C(c1cccnc1)N(C)C2=O` (stereo not given) gave HPGD block -11%.
`O=C(CCc1ccccc1)Nc1ccncc1` gave HPGD block -17%.

Screening results deposited in PubChem by National Center for Advancing Translational Sciences (NCATS).
